High-throughput results (PubChem BioAssay)
Mtb MenB inh: M. tuberculosis MenB inhibitors, primary screen, biochemical, absorbance; AID 540299, 2011; inhibition, %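 (about 12 µg/mL by stock and volumes)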; MenB enzyme assay, absorbance read-out; some hits fall short of the stated cut; actives 0.43% (n = 100,000);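 active means mean of two replicates above 30%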;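 further: 0% = no compound and 100% = wells with inactive enzyme; the first replicate is given; strong numbers were not always called active; inactives centre near -10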
Target sequence (P9WNP5 whole entry, looked up): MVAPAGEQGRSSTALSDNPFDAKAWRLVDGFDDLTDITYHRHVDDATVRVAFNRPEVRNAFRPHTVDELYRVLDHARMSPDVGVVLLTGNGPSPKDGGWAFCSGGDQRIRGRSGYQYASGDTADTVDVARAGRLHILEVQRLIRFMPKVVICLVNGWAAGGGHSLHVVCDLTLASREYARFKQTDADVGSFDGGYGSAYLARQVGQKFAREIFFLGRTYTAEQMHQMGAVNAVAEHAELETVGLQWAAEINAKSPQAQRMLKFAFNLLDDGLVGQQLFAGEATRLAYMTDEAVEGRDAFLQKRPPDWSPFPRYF
PV pol inh: poliovirus RdRp elongation inhibitors, primary screen, biochemical, fluorescence polarization, total intensity; % elongation, % (compound at 16.7 µg/mL); AID 588519, 2011; actives 0.66% (n = 150,000); poliovirus polymerase elongation; active compounds read low; in the data active means % elongation below about 90%; further: some results filed as inactive read as strong as hits
Target sequence (P03300 1749-2209 limits assumed): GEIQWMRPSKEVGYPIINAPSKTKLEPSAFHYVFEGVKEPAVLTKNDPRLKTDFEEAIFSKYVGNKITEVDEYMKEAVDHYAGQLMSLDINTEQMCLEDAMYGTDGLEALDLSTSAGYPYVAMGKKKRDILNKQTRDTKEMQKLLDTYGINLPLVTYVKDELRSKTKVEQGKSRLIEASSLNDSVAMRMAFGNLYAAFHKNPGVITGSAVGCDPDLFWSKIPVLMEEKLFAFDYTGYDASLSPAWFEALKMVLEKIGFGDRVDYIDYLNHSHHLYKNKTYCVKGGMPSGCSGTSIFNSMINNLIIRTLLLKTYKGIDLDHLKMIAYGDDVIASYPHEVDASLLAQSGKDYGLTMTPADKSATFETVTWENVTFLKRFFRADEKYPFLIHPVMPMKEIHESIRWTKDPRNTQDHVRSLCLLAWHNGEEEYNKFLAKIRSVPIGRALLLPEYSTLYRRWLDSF
MbtI inh: MbtI salicylate synthase inhibitors, primary screen, biochemical, fluorescence intensity. actives 0.89% (n = 100,000). inhibition, %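 (about 17 µg/mL by stock and volumes)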. P9WFX0. AID 493033, 2011. purified MbtI enzyme, fluorescence intensity read-out;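 active means above 50% in both replicates, above 80% if mildly self-fluorescent; inactive means the rest, strongly fluorescent compounds included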;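 further: 0% = mean of negative and 100% = mean of positive controls; one replicate is shown; some compounds called inactive have numbers as strong as hits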
PV pol inh intensity: also measured in PV pol inh; calls as there; % elongation; measured here: total intensity read-out; formula for this scale not given here;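 total fluorescence in place of polarization; lower means less elongation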
* marks the source's active call; other numbers are inactive results; / = not tested or not shown; & = joins results of further samples.

The opening 2 entries (preview)
SMILES	Mtb MenB inh	PV pol inh	PV pol inh intensity	MbtI inh
CCCN1CC=C2C(C#N)(C#N)C(N)=C(C#N)C(c3ccc(OCC(N)=O)cc3)C2(C)C1 (configuration not stated)	-32	59	237	/
CCn1c(SC(C)C(=O)NCc2ccc(OC)cc2)nc2ccccc21 (configuration not stated)	-3	101	104	-9

The list itself, repeating the preview:
SMILES	Mtb MenB inh	PV pol inh	PV pol inh intensity	MbtI inh
CCCN1CC=C2C(C#N)(C#N)C(N)=C(C#N)C(c3ccc(OCC(N)=O)cc3)C2(C)C1 (configuration not stated)	-32	59	237	/
CCn1c(SC(C)C(=O)NCc2ccc(OC)cc2)nc2ccccc21 (configuration not stated)	-3	101	104	-9
CCCCNS(=O)(=O)c1ccc(Cl)cc1	-25	103	103	-1
COc1ccc2c(COC(=O)c3ccc4c(=O)n5c(nc4c3)CCC5)cc(=O)oc2c1	2	104	109	-6
Cn1cnnc1SCc1cn2ccccc2n1	/	101	97	5
O=S(=O)(c1ccccc1)N1CCN(S(=O)(=O)N2CCCCC2)CC1	38	102	102	-6
CC(NC(=O)/C=C/c1cccs1)C1CC2CCC1C2 (configuration not stated)	/	103	103	-6
CC1=NN(C)C(=O)/C1=N\OC(=O)c1ccc(Cl)cc1	-33	103	103	6
CC(=O)Nc1ccc(CNC(=O)c2ccc(F)cc2)cc1	6	97	102	6
COc1ccccc1N1CCN(S(=O)(=O)Cc2ccccc2)CC1	-35	111	106	/
O=C1OCCC1Sc1nnc(COc2ccccc2Cl)n1C1CC1 (configuration not stated)	-8	106	111	-10
COC(=O)C1=C(C)N(CC(C)C)C(=O)/C1=C\c1ccco1	-126	100	99	1
NC(N)=NCC1COC2(CCCCC2)O1 (configuration not stated)	2	96	104	-12
Cc1csc(C(C#N)C(=O)COc2ccc(Cl)cc2)n1 (configuration not stated)	-25	106	98	6
CC1(C)NC(=CC(=O)C(F)(F)F)NC1(C)C	-15	102	101	8
O=C(CCC(=O)N1CCOc2ccccc21)Nc1ccccc1Cl	-9	105	104	-4
COc1cc(C2CC(=O)N(CC(=O)NCC3CCCO3)c3ccccc3S2)cc(OC)c1OC (configuration not stated)	-19	104	104	4
Cn1c(C(=O)NCCc2ccc(Cl)cc2)cc2c(=O)n(C)c3ccccc3c21	-17	102	98	0
CCCC12CNCC(C)(CNC1)C2=O	1	103	110	-3
CC(C)CC(C(=O)Nc1cccc(C(F)(F)F)c1)N1C(=O)c2ccccc2C1=O (configuration not stated)	-17	101	103	15
CCOC(=O)N1CCC(N2CCCC(CO)C2)CC1 (configuration not stated)	-5	100	103	-13
CCCn1nc(C(=O)N(C)CCOc2ccccc2)c2ccccc2c1=O	-11	108	109	-6
CC(C)(C)SCC(=O)Nc1cccc2ncccc12	4	108	141	-32
O/N=C/c1ccc[n+](C/C=C/c2ccccc2)c1	-2	104	110	-4
CC(C)(C)OC(=O)N1CCC(CNS(=O)(=O)c2cccc3cccnc23)CC1	-14	105	116	-13
SMILES	Mtb MenB inh	PV pol inh	PV pol inh intensity	MbtI inh
C=COC(=O)CSc1nc(C)cc(C)c1C#N	3	86*	90*	/
Cc1ccc(Cl)cc1N1C(=O)CC(N2CCC(C(N)=O)CC2)C1=O (configuration not stated)	-4	100	103	12
CCCCC(C)C(N)=O (configuration not stated)	-5	99	104	-11
CCc1ccc(CNC(=O)C2CCN(S(=O)(=O)N3CCCC3)CC2)cc1	5	101	103	-19
CC(C)(C)OC(=O)N1CCN(C2CC(=O)N(CCc3ccccc3)C2=O)CC1 (configuration not stated)	-23	102	102	9
COc1ccc(OCCC(=O)NN)cc1	-10	102	104	-10
CCN(Cc1ccccc1)C(=O)CSc1nncn1C	-19	95	93	24
O=C(CON1C(=O)c2ccccc2C1=O)c1ccc(O)cc1O	-20	101	100	18
CCOC(=O)c1cn(C(=O)CCSc2ccc(OC)cc2)nc1N	13	101	107	-1
CC(=O)Nc1cccc(NC(=O)c2nc(-c3ccccc3)oc2C)c1	-20	110	115	12
CCn1cc(C(=O)N2CCOCC2)c(=O)c2cc(S(=O)(=O)N3CCc4ccccc4C3)ccc21	-1	99	102	-3
N#CCN(CC#N)C(=O)c1ccc(C(=O)N(CC#N)CC#N)cc1	8	102	104	7
CCCOc1ccccc1C1C(C(=O)OC)=CN(C2CCCC2)C=C1C(=O)OC	-8	100	98	-4
CCOC(=O)N1CCN(C(=O)/C(=C/c2ccccc2Cl)c2ccccc2)CC1	-1	101	103	-1
COC(=O)c1ccc(COc2ccccc2)o1	-9	106	103	-23
Cc1ccc2c(n1)sc1c(=O)n(Cc3ccccc3)nnc12	7	102	102	-14
Cc1ccc(CN2C(=O)CCC2C(=O)NCc2ccco2)cc1 (configuration not stated)	12	100	102	2
Cc1cc(/C=C/C(=O)O)c(C)n1-c1ccccc1	-9	101	99	16
O=C(COc1c(F)c(F)cc(F)c1F)C12CC3CC(CC(C3)C1)C2	1	105	109	-14
CSC1=NC2(CC(c3ccccc3)Oc3cc(O)ccc32)CC(C)(C)N1 (configuration not stated)	-11	106	106	/
CCOc1ccc2oc(=O)cc(CN(Cc3ccco3)CC3CCCO3)c2c1 (configuration not stated)	-29	102	104	-5
Nc1[nH]n(-c2ccccc2)c(=O)c1N=Nc1ccc(Cl)cc1	-50	100	104	-12
O=C(N/N=C/c1ccc(Br)cc1)c1ccccc1-n1cccc1	-8	99	102	3
CC(C)CN(C(=O)CSc1nccn1C)C1CCS(=O)(=O)C1 (configuration not stated)	-16	103	105	-9
CCOc1ccc2nc(NC(=O)c3ccc(C(C)(C)C)cc3)sc2c1	/	101	105	0
SMILES	Mtb MenB inh	PV pol inh	PV pol inh intensity	MbtI inh
CC(C)Cc1cc(-c2ccc(F)cc2)c(C#N)c(N)n1	-22	100	104	-117
Cc1cc(C(=O)CSCc2ccc(Cl)c(Cl)c2)c(C)n1Cc1ccco1	5	104	104	7
Cc1nc2ccccn2c1-c1ccnn1C(=O)c1ccc(Cl)cc1	-7	106	108	-27
COc1ccc2c(c1)CC/C(=C/c1ccco1)C2=O	-67	105	115	-4
CN(C)C(CNC(=O)c1ccc2ncsc2c1)c1cccs1 (configuration not stated)	0	105	106	-1
c1ccc(CNC2=NCCS2)cc1	/	105	109	-9
O/N=C1/CC(O)(C(F)(F)F)Oc2ccccc21 (configuration not stated)	-18	103	104	12
Cc1oc(-c2cccc(C(F)(F)F)c2)cc1CO	-1	/	/	63
Oc1ccc(-c2n[nH]c(C(F)(F)F)c2-c2ccccc2)c(O)c1	-12	100	103	-58
COc1cccc2cccc(/C=N/n3cnnc3)c12	/	100	96	-9
COc1ccc(-c2noc(CC(=O)N(Cc3ccco3)C3CCCCC3)n2)cc1	-1	101	102	-8
CC(=O)N1N=C(Cn2nc(C)cc2C)OC1(C)c1ccccc1 (configuration not stated)	15	102	101	1
Cc1ccc(-n2c(=O)c3ccc(C(=O)NCc4ccco4)cc3n(Cc3ccccc3F)c2=O)cc1	-6	98	101	4
N#C/C(=C\c1c[nH]c2ccccc12)C(N)=O	4	100	102	-3
O=C1CC(C(=O)Nc2cccc3ccccc23)C2(CCCC2)O1 (configuration not stated)	-18	104	108	/
CC(C)(C)c1ccc(C(=O)CC(C(=O)O)N2CCCCC2)cc1 (configuration not stated)	-6	99	110	/
Cc1ccccc1N=C(NN)c1ccccn1	2	100	103	19
O=C(OCCN1C(=O)c2ccccc2C1=O)c1ccccn1	16	105	107	2
Nn1cnn2c(SCc3cccc(C(F)(F)F)c3)nnc12	-14	99	85	/
CC(C)(C)c1ccc(-c2n[nH]c(S(C)(=O)=O)c2C#N)cc1	-5	99	109	-30
Cc1cc2ccccc2nc1SCC(N)=O	14	102	102	-19
O=C(CNC(=S)N(Cc1cccs1)C1CCCC1)NC1CCCc2ccccc21 (configuration not stated)	-19	102	105	9
Cc1cccc(Nc2ccccc2C(=O)NCc2ccco2)c1C	-44	/	/	7
COC(=O)CCC1CCCC/C1=N/O (configuration not stated)	/	102	101	-13
Cc1cccc(N=Cc2c(O)[nH]c3ccccc23)c1	-22	100	100	-19
SMILES	Mtb MenB inh	PV pol inh	PV pol inh intensity	MbtI inh
CCOC(=O)c1ccc(N2C=C(C(=O)OC)C(c3cccc(O)c3)C(C(=O)OC)=C2)cc1	6	102	105	31
O=c1oc2cc(OCc3ccccc3F)ccc2c2c1CCC2	/	104	107	-11
CCOC(=O)c1c(C)[nH]c(C)c1C(=O)COC(=O)c1ccc(S(=O)(=O)N(CC)CC)cc1	-12	107	102	-6
COc1ccc2c(C)cc(SCc3cn4ccsc4n3)nc2c1	-65	101	103	69
Cc1ccc(C)c(Cn2c(N3CCC(C(=O)NCc4ccco4)CC3)nc3ccccc32)c1	-4	102	104	6
COc1cccc(NC(=O)c2oc3ccccc3c2NC(=O)c2ccc3c(c2)OCO3)c1	-16	99	102	60
O=S1(=O)N=C(N2CCOCC2)c2ccccc21	16	99	101	-2
Cn1c(CN2CCCCC2)c(C#N)c2ccccc21	9	106	110	/
CCOc1ccccc1/C=N\n1cnnc1	-10	99	95	25
Cc1ccc(OC(C)(C)C(=O)Nc2ccc(Oc3ccc(F)cc3F)nc2)c2c1CCC2	-34	103	104	0
Cc1onc(-c2ccccc2Cl)c1-c1nc(-c2ccc(Br)cc2)no1	-19	102	102	-30
CCN1CCN(Cc2ccc(NC(=O)Nc3cc(F)ccc3F)cc2)CC1	5	101	102	-7
Cc1onc(-c2c(Cl)cccc2Cl)c1NC(=O)N1CCCN2C(=O)c3ccccc3C12 (configuration not stated)	-12	103	106	-10
COc1ccc(-c2nnc3ccc(SCC(=O)N4CCCCC4)nn23)cc1	-17	102	102	35
Cc1ccc(CNC(=O)CSc2nc3cnn(C)c3c(=O)n2Cc2ccccc2)cc1	-3	103	102	-17
C=CCNc1nn(-c2nc3ccccc3s2)c2c1CCCC2	/	103	97	0
NC(=O)CSc1nc(-c2ccccc2)nc2c1CCCC2	19	100	101	-10
COc1ccccc1N(CC(O)Cn1ccnc1C)S(=O)(=O)c1ccc(C)cc1 (configuration not stated)	-45	103	101	-2
Cc1ccc(C)c(-c2csc(NC(=O)CCCc3ccccc3)c2C(N)=O)c1	-65	105	102	/
Cc1cccc(-c2nc3ccccc3c(=O)n2OC(=O)c2ccc(C)c(C)c2)c1	-19	104	106	-5
CCN(CC)P(=O)(Oc1cccc(C)c1)N(CC)CC	-42	103	99	-4
COc1cccc(C(c2sc3ncnn3c2O)N2CCC(C)CC2)c1 (configuration not stated)	-25	103	105	14
CC(Oc1ccc(C(C)(C)C)cc1)C(=O)N1CCN(Cc2ccc3c(c2)OCO3)CC1 (configuration not stated)	-37	102	101	-11
CCN1CCN(C(=O)c2ccc(C#N)cc2)CC1	-1	105	107	-13
Brc1ccccc1C=Nc1cccc2cnccc12	/	81*	77*	3

Ordered by number of heavy atoms (highest first): part of the list above.
SMILES	Mtb MenB inh	PV pol inh	PV pol inh intensity	MbtI inh
CC(C)(C)OC(=O)N1CCC(CNS(=O)(=O)c2cccc3cccnc23)CC1	-14	105	116	-13
COc1ccc(-c2nnc3ccc(SCC(=O)N4CCCCC4)nn23)cc1	-17	102	102	35
O=c1oc2cc(OCc3ccccc3F)ccc2c2c1CCC2	/	104	107	-11
NC(=O)CSc1nc(-c2ccccc2)nc2c1CCCC2	19	100	101	-10
CC(C)Cc1cc(-c2ccc(F)cc2)c(C#N)c(N)n1	-22	100	104	-117
CC(C)(C)SCC(=O)Nc1cccc2ncccc12	4	108	141	-32
c1ccc(CNC2=NCCS2)cc1	/	105	109	-9

(further entries)
SMILES	Mtb MenB inh	PV pol inh	PV pol inh intensity	MbtI inh
CC1Cc2ccccc2N1C(=O)CSc1nc2ccccc2[nH]1 (configuration not stated)	/	102	106	-4
Cc1ccc(CCNC(=O)c2coc3nc4ccccc4nc23)cc1	-23	99	121	2
CC(C)COc1ccc(N)cc1OCC(C)C	/	100	103	-4
CN(CC(=O)NC1CCCC1)S(=O)(=O)c1ccc2c(c1)c(=O)n(C)c(=O)n2C	-16	100	103	-5
COc1ccc2c(c1O)-c1c(OC)c(OC)cc3c1[C@H](C2)N(C)CC3	-3&1	99&99	101&102	-64&-25
O=C(CC(C(=O)c1ccccc1)c1cccs1)c1ccc(Cl)cc1 (configuration not stated)	-37	106	109	-11
O=C(O)CC1=C(c2ccc(Cl)cc2)CCC1=O	4	106	94	/
CCS(=O)(=O)c1ccc2oc(=O)c(/C=C(\O)c3oc(C)nc3C)nc2c1	-6	99	120	-3
COc1cc(-c2cc(C(=O)NCCCO)c3ccccc3n2)cc(OC)c1OC	1	105	108	-75
COCCN(Cc1nc2ccccc2c(=O)[nH]1)C(=O)C1CCCN1C(=O)c1cccs1 (configuration not stated)	-27	102	110	-5
COc1ccc(Cn2c(C)cc(O)cc2=O)cc1OC	-110	103	103	-3
O=C1NCCCC1C(=O)Nc1ccncc1 (configuration not stated)	-5	101	102	-6
CCN(CC)C(=O)Cc1c(C(=O)O)[nH]c2ccccc12	2	98	98	22
N#CCOC(=O)/C=C/c1cn(Cc2ccccc2)nc1-c1cccs1	-30	102	98	122

Exported field by field: 3 of the compounds above.
Compound: CN(CC(=O)NC1CCCC1)S(=O)(=O)c1ccc2c(c1)c(=O)n(C)c(=O)n2C
  Mtb MenB inh: -16; PV pol inh: 100; PV pol inh intensity: 103; MbtI inh: -5

Compound: CC1Cc2ccccc2N1C(=O)CSc1nc2ccccc2[nH]1 (configuration not stated)
  Mtb MenB inh: /; PV pol inh: 102; PV pol inh intensity: 106; MbtI inh: -4

Compound: O=C(O)CC1=C(c2ccc(Cl)cc2)CCC1=O
  Mtb MenB inh: 4; PV pol inh: 106; PV pol inh intensity: 94; MbtI inh: /
